RGS16-Gao HTS: modulates binding between human RGS16 and Galphao; bead-based flow cytometry RGS16-Galphao binding, fluorescence; actives lie on both sides; binding response (% of control), % at 10 µM; 220,000 tested, 0.38% active; AID 1441;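 active means below 25% or above 175%, edge rows of some plates excepted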;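 further: Galphao activated by GDP with aluminum fluoride before binding; 100% = wells without compound and 0% = beads without RGS; some results beyond the cut were filed as inactive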
HSV augment: HSV replication enhancement. HSV replication augmentation in cells, fold increase. maximum fold increase. 220,000 tested, 0.005% active. AID 1956;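 active means peak rise of 1.5-fold or more in the series; inconclusive means self-fluorescent or not available for retest; tested in PC3 cells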;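 further: first round at 10 µM; read as green reporter fluorescence; hits show the peak of a series up to 25 µM; 1 = signal of infected wells without compound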
PKD1 inh: PKD1 (human) kinase inhibition; AID 797; Q15139; PKD1 kinase fluorescence polarization assay; 200,000 tested, 0.056% active; inhibition, %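 (about 10 µM by stock and volumes)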;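 active means inhibition of 50% or more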;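 further: controls were vehicle for no effect and a reference inhibitor for full effect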
Target sequence (Q15139 whole entry, looked up): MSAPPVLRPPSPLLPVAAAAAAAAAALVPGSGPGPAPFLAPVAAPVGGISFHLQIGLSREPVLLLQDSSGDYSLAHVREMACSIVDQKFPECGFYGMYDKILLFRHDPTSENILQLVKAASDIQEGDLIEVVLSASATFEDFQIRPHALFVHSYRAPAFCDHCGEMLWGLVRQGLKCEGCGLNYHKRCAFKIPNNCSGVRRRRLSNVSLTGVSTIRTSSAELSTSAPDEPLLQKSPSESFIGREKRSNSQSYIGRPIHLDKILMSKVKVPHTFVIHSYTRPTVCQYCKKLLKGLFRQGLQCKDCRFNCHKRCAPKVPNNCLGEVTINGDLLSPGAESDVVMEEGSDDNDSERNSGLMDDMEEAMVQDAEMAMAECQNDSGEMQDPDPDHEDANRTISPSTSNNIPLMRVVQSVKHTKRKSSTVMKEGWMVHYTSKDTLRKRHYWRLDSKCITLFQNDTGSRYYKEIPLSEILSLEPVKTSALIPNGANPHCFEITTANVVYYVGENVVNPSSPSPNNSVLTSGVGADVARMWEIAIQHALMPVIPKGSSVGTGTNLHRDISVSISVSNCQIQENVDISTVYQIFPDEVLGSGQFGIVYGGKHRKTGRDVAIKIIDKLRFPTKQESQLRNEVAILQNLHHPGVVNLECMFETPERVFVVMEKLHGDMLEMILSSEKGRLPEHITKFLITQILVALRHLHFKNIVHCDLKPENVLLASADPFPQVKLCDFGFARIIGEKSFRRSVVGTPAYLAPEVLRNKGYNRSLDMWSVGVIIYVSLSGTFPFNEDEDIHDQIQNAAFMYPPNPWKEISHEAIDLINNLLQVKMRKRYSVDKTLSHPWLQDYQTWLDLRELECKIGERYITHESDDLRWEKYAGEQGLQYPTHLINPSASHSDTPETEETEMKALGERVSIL
Insulin prom inh: TRM-6 insulin promoter activity inhibition. TRM-6 cells (human fetal islet line), insulin promoter-eGFP reporter, imaging; reporter expression induced with tamoxifen. inhibition, % at 2 µM. 130,000 tested, 0.9% active. AID 1273;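 active means inhibition above the mean plus 3 SD, with well images judged a real hit on visual review, cut at about 60% in these data, passing the limit was not always enough; inconclusive means inhibition over the cutoff but images rejected on review; inactive means inhibition not above the cutoff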
GALR2 ag: activates the human galanin receptor 2 | 140,000 tested, 0.48% active | activation, %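 (tested at 5 µM)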 | O43603 | GALR2-expressing cells, agonist activation read-out;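 active means above mean plus 3 SD of all compounds, about 5% in these data, not always enough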;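 further: 0% = vehicle buffer wells and 100% = reference agonist at full effect; tested in CHO reporter cells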
Insulin prom inh cell count: recorded beside Insulin prom inh, whose call it bears; normalized cell count, %; measured here: cell count, toxicity; reference of the scale not given here;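 cells exposed to compound for 48 h; stained nuclei by imaging scaled within each plate; lower means fewer cells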
HSV augment primary fold: further read-out of HSV augment, marked with its call; fold increase; compound at 10 µM; measured here: primary screen fold increase 10 uM; tested in PC3 cells;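 GFP signal in the first replicate; 1 = infected wells without compound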
Active calls of the source: *; i = inactive; ? = inconclusive; . = no result given; [ ] = dose if it differs, or a comment. A portion of the library, so the mix of outcomes need not match the whole.

Each structure is followed by: RGS16-Gao HTS	HSV augment	HSV augment primary fold	PKD1 inh	Insulin prom inh	Insulin prom inh cell count	GALR2 ag
Cc1nc2ccccc2c(=O)n1-c1ccc(Cl)cc1[N+](=O)[O-]
 : 103	i	1	0	29	70	.
O=C(COc1ccc(S(=O)(=O)N2CCCCC2)cc1)N1CCN(Cc2ccccc2)CC1
 : 104	i	0.92	-4	25	86	-2.5
COc1ccc(-c2nc3ccccc3n2OC(=O)N(C)C)cc1
 : 96	i	1	-5	0	161	-3.0
Cc1ccccc1CCNCc1ccc(Br)cc1
 : 109	i	0.91	-1	-12	127	-0.5
Cc1cc(C=C2C(=O)NC(=S)NC2=O)c(C)n1C1CCCC1
 : 94	i	1.2	-3	.	.	.
O=C(O)CCC(=O)NCCC1=c2ccccc2=N/C1=C\c1c(O)n(Cc2ccc(F)cc2)c(=S)[nH]c1=O
 : 81	.	.	.	.	.	.
COc1ccc(CC2(CCc3ccncc3)C(=O)NC(=O)NC2=O)c(OC)c1
 : 110	i	1.1	5	.	.	.
CCC(CC)NCc1c[nH]c2ccccc12
 : 108	i	0.99	-3	0	100	.
CC(=O)c1ccc2c(c1)C1C(Cl)C(Sc3ccccc3[N+](=O)[O-])CC1C(c1ccccc1)N2 (configuration not stated)
 : 95	i	0.93	0	37	77	0.1
CN1CCN(Cc2ccccc2Sc2ccccc2)CC1
 : 103	i	0.78	-6	8	136	0.3
COc1ccc(NC(=S)NC(NC(=O)CF)C(Cl)(Cl)Cl)cc1[N+](=O)[O-] (configuration not stated)
 : 46	i	0.98	-2	-17	52	.
Cc1ccc2cc3cc(C(=O)N4CCC5(CC4)OCCO5)oc3nc2c1
 : 76	i	0.95	-2	50	74	0.2
Cc1cc(C=C2C(=O)NC(=O)NC2=O)c(C)n1-c1ccncc1
 : 93	i	1.1	0	7	104	.
CCC1(CC)C(=O)N(C)C(=O)NC1=NC
 : 204*[activator]	i	0.87	.	.	.	.
CC/C(=N\Nc1ccccc1)c1c(O)n(C)c(=O)n(C)c1=O
 : 103	i	1.1	0	.	.	-0.9
COCCOC(=O)C1=C(C)OC(N)=C(C(=O)OC)C12C(=O)Nc1ccccc12 (configuration not stated)
 : 102	i	0.99	0	.	.	-1.7
Cc1cccc(OP(N)(=O)Oc2cccc(C)c2C)c1C
 : 104	i	1.1	.	.	.	.
Cc1cccc(C)c1NC1=NCCCCS1
 : 109	i	0.81	-10	23	108	-3.6
COc1ccc(CC2c3cc(OC)c(OC)cc3CCN2C)cc1OC (configuration not stated)
 : 106	i	0.72	-6	.	.	-1.4
COCCn1c(-c2ccccc2)cc(C(=O)O)c1C
 : .	i	0.38	-13	50	142	-1.7
CNC(=O)Oc1ccc(-c2cn3cc(C)ccc3n2)cc1
 : 89	i	0.88	-14	34	120	-1.0
O=C1c2ccccc2C(=O)N1Cc1nc2ccccc2c(=O)n1-c1cccnc1
 : 102	i	0.93	-6	-37	127	-2.0
Cc1ccc(N2C(=O)NC(=O)C(CCc3ccncc3)(Cc3cccc(Cl)c3Cl)C2=O)cc1 (configuration not stated)
 : 98	i	1.1	1	-169	113	-0.8
CC(C)C(=O)Nc1nnc(CCN(CCc2nnc(NC(=O)C(C)C)s2)[N+](=O)[O-])s1
 : 97	i	0.92	.	.	.	.
CC(=O)OC1N=C(c2ccc(Cl)cc2)c2cc(Br)ccc2NC1=O (configuration not stated)
 : 100	i	0.96	-2	-8	97	-1.5
CCNC(=O)NNC(=O)C1CC(c2cccnc2)=NO1 (configuration not stated)
 : 99	i	0.98	0	0	104	.
O=C(Oc1c(Cl)cc(Cl)c2ccccc12)N1CCCCC1
 : 98	i	0.98	-1	-107	27	0.4
CN(C)CCN=Cc1c(O)n(-c2cccc3ccccc23)c(=O)[nH]c1=O
 : 108	i	0.97	-14	32	90	0.4
O=C(c1ccc(C(F)(F)F)cc1)C1CCCN(Cc2ccncc2)C1 (configuration not stated)
 : 101	i	0.95	-14	.	.	.
CC(=O)OC1(c2ccccc2)CCN(C)C(C)C1C (configuration not stated)
 : 89	i	1	-7	-131	88	1.3

Brought forward from above: 2 entries; new compounds follow.
Each structure is followed by: RGS16-Gao HTS	HSV augment	HSV augment primary fold	PKD1 inh	Insulin prom inh	Insulin prom inh cell count	GALR2 ag
O=C(c1ccc(C(F)(F)F)cc1)C1CCCN(Cc2ccncc2)C1 (configuration not stated)
 : 101	i	0.95	-14	.	.	.
CC(=O)OC1(c2ccccc2)CCN(C)C(C)C1C (configuration not stated)
 : 89	i	1	-7	-131	88	1.3
CCOCCN1CCN(c2nnc3n2-c2ccc(Cl)cc2C(c2ccccc2Cl)=NC3)CC1
 : 100	.	.	9	.	.	-1.8
CCCCn1c(O)c(C(C)=NCC2CCCO2)c(=O)[nH]c1=O (configuration not stated)
 : 100	i	0.91	3	24	117	-0.7
Cc1ccccc1-n1c(O)c(C=NCCN2CCOCC2)c(=O)[nH]c1=O
 : 100	i	1	-3	-9	88	-1.4
Cc1ccccc1CN1CCNCC1
 : 99	i	0.97	-11	.	.	.
CC1(C)CC(=O)C(C=NCCN2CCN(C(=O)Cc3ccc(Cl)cc3)CC2)=C(O)C1
 : 93	i	0.82	4	-42	89	-2.4
Fc1ccc(C2=CCN(C(c3ccc(Cl)cc3)c3nnnn3Cc3ccccc3)CC2)cc1 (configuration not stated)
 : 113	i	1	-7	.	.	-1.1
Cc1ccc(-n2c(C)nc3ccccc3c2=O)cc1C
 : 105	i	0.85	-7	.	.	.
C=CCN1C(=O)NC(=O)/C(=C/C=C/c2ccccc2)C1=O
 : 97	i	0.7	4	.	.	.
Cc1cc(OC(=O)CCNC(=O)OC(C)(C)C)c2c3c(c(=O)oc2c1)CCC3
 : 101	i	0.87	-11	.	.	-1.0
CCC(=NCCc1c[nH]c2ccccc12)c1c(O)n(-c2ccc(C)cc2)c(=O)[nH]c1=O
 : 152	i	0.82	3	-14	70	1.6
COc1ccc(-c2cc(C(F)(F)F)n3nc(C(=O)N4CCC5(CC4)OCCO5)cc3n2)cc1OC
 : 98	i	0.92	-2	-14	174	-1.5
c1cncc(CNC2=NCCCCC2)c1
 : 91	i	0.94	-3	7	107	-1.6
CCc1ccc(CNCCc2ccccc2F)cc1
 : 101	i	0.9	1	-12	174	-0.7
CC(=NCc1ccc2c(c1)OCO2)c1c(O)[nH]c(=O)[nH]c1=O
 : 103	i	1	-6	-43	105	-4.0
CN1C(=O)C(Cc2ccsc2)C(=O)N(C)C1=O
 : 90	i	0.86	-9	.	.	-0.2

Complete entries, quoted from the list. Values in the order: RGS16-Gao HTS | HSV augment | HSV augment primary fold | PKD1 inh | Insulin prom inh | Insulin prom inh cell count | GALR2 ag
CCc1ccc(CNCCc2ccccc2F)cc1 reads 101 | i | 0.9 | 1 | -12 | 174 | -0.7
CCOCCN1CCN(c2nnc3n2-c2ccc(Cl)cc2C(c2ccccc2Cl)=NC3)CC1 reads 100 | . | . | 9 | . | . | -1.8
O=C(Oc1c(Cl)cc(Cl)c2ccccc12)N1CCCCC1 reads 98 | i | 0.98 | -1 | -107 | 27 | 0.4
Cc1cc(C=C2C(=O)NC(=S)NC2=O)c(C)n1C1CCCC1 reads 94 | i | 1.2 | -3 | . | . | .

3 of these compounds in a different format.
Compound: c1cncc(CNC2=NCCCCC2)c1
  RGS16-Gao HTS: 91 | HSV augment: i | HSV augment primary fold: 0.94 | PKD1 inh: -3 | Insulin prom inh: 7 | Insulin prom inh cell count: 107 | GALR2 ag: -1.6

Compound: C=CCN1C(=O)NC(=O)/C(=C/C=C/c2ccccc2)C1=O
  RGS16-Gao HTS: 97 | HSV augment: i | HSV augment primary fold: 0.7 | PKD1 inh: 4 | Insulin prom inh: . | Insulin prom inh cell count: . | GALR2 ag: .

Compound: CN1C(=O)C(Cc2ccsc2)C(=O)N(C)C1=O
  RGS16-Gao HTS: 90 | HSV augment: i | HSV augment primary fold: 0.86 | PKD1 inh: -9 | Insulin prom inh: . | Insulin prom inh cell count: . | GALR2 ag: -0.2

(listing goes on)
Each structure is followed by: RGS16-Gao HTS	HSV augment	HSV augment primary fold	PKD1 inh	Insulin prom inh	Insulin prom inh cell count	GALR2 ag
COP(=O)(NS(=O)(=O)c1ccccc1)OC
 : 100	i	1	11	.	.	.
O=C1NC(=O)N(Cc2ccc(F)cc2)C(=O)/C1=C\C=C\c1ccco1
 : 102	?	.	.	.	.	.
COc1ccc(C(=O)CC2(CC(=O)c3ccc(OC)cc3)C(=O)N(C)C(=O)N(C)C2=O)cc1
 : 101	i	1	8	39	88	-1.9
CCCCn1c(N)c(C(=O)NCCN2CCOCC2)c2nc3ccccc3nc21
 : 91	i	0.74	-8	-36	142	3.4
Cn1c(C(=O)N2CCC(C(=O)N3CCC4(CC3)OCCO4)CC2)cc2sccc21
 : 99	i	0.98	-2	.	.	-0.2
NCCc1ccc(O)cc1
 : 106	i	0.88	-6	-11	110	0.1
[N-]=[N+]=NC1C[C@H](n2ccc(=O)[nH]c2=O)O[C@@H]1CO (some centres not stated)
 : 97	i	0.94	-13	-32	93	-0.3
c1ccc2c(c1)OCC(C1=NCCN1)O2 (configuration not stated)
 : 107	i	0.76	-9	-77	173	-1.4
CC[C@]12C=CCN3CCC4(c5cc(Br)c(OC)cc5N(C)C4[C@@](O)(C(=O)OC)[C@@H]1OC(C)=O)C32 (some centres not stated)
 : 115	i	1	3	14	97	.
O=C(COC(=O)c1ccccc1)Nc1ccc(Cl)cc1C(=O)c1ccccc1
 : 84	i	1	7	3	106	-0.9
CCOC(=O)C1CN(C)CCC1=O (configuration not stated)
 : 95	i	0.95	-8	.	.	-1.3
O=C(Cn1cnc2sc3c(c2c1=O)CCCC3)NCCCC(=O)N1CCC2(CC1)OCCO2
 : 94	i	0.92	-3	-44	102	-1.6
O=C1c2ccccc2C2(c3ccc(Cl)cc3)NCCN12 (configuration not stated)
 : 101	.	.	-11	-12	66	-1.8
Cc1ccsc1C(=O)C1CCCN(Cc2cccc(-n3cccn3)c2)C1 (configuration not stated)
 : 97	i	1.1	7	.	.	.
O=C1NC(=O)N(c2ccccc2F)C(=O)/C1=C/c1ccc(Oc2ccc([N+](=O)[O-])cn2)cc1
 : 95	i	0.96	11	.	.	.
Cc1ccc2c(c1)C1CN(C)CCC1N2S(=O)(=O)c1ccccc1 (configuration not stated)
 : 100	i	0.74	-3	-3	54	-1.6
CC(Cc1ccccc1)NC(=O)/C=C/C(=O)O (configuration not stated)
 : 106	i	0.95	-4	78*	56*	.
CCCC[N+]12CCC(CC1)C(C(O)(c1ccccc1)c1ccccc1)C2 (configuration not stated)
 : 104	i	0.93	.	.	.	.
C=CCn1c(O)c(C(C)=Nc2ccc(C(=O)O)cc2)c(=O)[nH]c1=O
 : 98	i	0.97	.	.	.	.
CC(C)C/C(=N/O)c1cn(C)c2ccccc12
 : 104	i	1	1	.	.	.
COc1cc(N)c(Cl)cc1C(=O)NC1CN2CCC1CC2 (configuration not stated)
 : 102	i	0.68	.	.	.	.
O=C1NC(=O)N(CCNc2ncc(C(F)(F)F)cc2Cl)C(=O)C1/C=N/OCc1c(F)cccc1Cl (configuration not stated)
 : 84	.	.	15	.	.	-2.8
N=c1c[n+](C2CCCCC2)[n-]o1
 : 100	i	0.94	-9	14	122	.
O=C(N=Nc1c(O)[nH]c(=O)[nH]c1=O)C1COc2cc3ccccc3cc2O1 (configuration not stated)
 : 102	i	0.87	-2	67	111	.
Cc1ccc(N=C(N(C)C)P(=O)(N(C)C)N(C)C)cc1
 : 109	i	0.98	2	-5	127	.
O=C1NC(=O)C(CCc2ccncc2)(Cc2ccc3c(c2)OCO3)C(=O)N1CCc1ccccc1 (configuration not stated)
 : 104	i	0.83	1	-3	30	-0.3

High-throughput results as filed in PubChem.
